Source: PubChem (several laboratories)
VCAM-1 up = enhancers of VCAM-1 display on endothelial cells, cell-based, plate reader, pooled HUVEC, TNFa stimulus (AID 455). HUVEC TNFa-induced VCAM-1 immunofluorescence, plate reader; numbers were filed only for top-ranked candidate wells. 10,000 compounds, 0.2% hits. augmentation, % at 5 µM;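 active means a compound raising TNF-alpha-driven VCAM-1 surface staining, with its hit status upheld on visual or statistical review; inactive means the rest, including hits rejected on review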;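 further: 0% = TNFa with vehicle and 100% = strongest image-checked hit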
Proteasome disasm = inhibitors of ATP-driven 26S proteasome dissociation, primary screen, biochemical, bead-based flow cytometry, GFP-tagged proteasome | AID 751, 2007 | inhibition of disassembly, % (test concentration not listed) | anti-FLAG beads, GFP-proteasome disassembly | 24,000 compounds, 0.2% hits;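 active means above 40%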;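 further: plate controls were ATP control with full disassembly for no effect and ATP-gamma-S intact proteasomes for full effect; higher percent means more bead fluorescence retained so stronger block of disassembly; stock transfer was 100 nL into about 10 µL; wells with too few beads may also be inconclusive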
The depositor's hits bear a star; i = inactive.

> N=c1nc(N2CCCCC2)cc(N)n1O
  VCAM-1 up: i | Proteasome disasm: 0.6
> CCCOc1ccc2nc(NC(=O)OC)[nH]c2c1
  VCAM-1 up: i | Proteasome disasm: 0.9
> CCCC(=O)O[C@]1(C(=O)CCl)[C@@H](C)C[C@H]2[C@@H]3CCC4=CC(=O)C=C[C@]4(C)[C@@]3(F)C(=O)C[C@@]21C
  VCAM-1 up: i | Proteasome disasm: -0.7
> COc1ccc(C(=O)c2ccccc2)c(O)c1
  VCAM-1 up: i | Proteasome disasm: -1.2
> CCCCCCCCCCCCCCCC(O)C(N)CO (stereo unspecified)
  VCAM-1 up: i | Proteasome disasm: 0.8
> CCN(CCCCOC(=O)c1ccc(OC)c(OC)c1)C(C)Cc1ccc(OC)cc1 (stereo unspecified)
  VCAM-1 up: i | Proteasome disasm: 0.0
> CC1(C)O[C@@H]2C[C@H]3[C@@H]4C[C@H](F)C5=CC(=O)C=C[C@]5(C)[C@@]4(F)[C@@H](O)C[C@]3(C)[C@]2(C(=O)CO)O1
  VCAM-1 up: i | Proteasome disasm: 0.2
> CCCC(=O)O[C@]1(C(=O)COC(C)=O)CC[C@H]2[C@@H]3C[C@H](F)C4=CC(=O)C=C[C@]4(C)[C@@]3(F)[C@@H](O)C[C@@]21C
  VCAM-1 up: i | Proteasome disasm: 0.7
> CCCCN(CCCC)CCCOC(=O)c1ccc(N)cc1
  VCAM-1 up: i | Proteasome disasm: -1.0
> CC(C)(C)NCC(O)COc1cccc2c1C[C@H](O)[C@H](O)C2 (stereo partly specified)
  VCAM-1 up: i | Proteasome disasm: 0.3
> COc1cc(C2Oc3cc(C4Oc5cc(O)cc(O)c5C(=O)C4O)ccc3OC2CO)ccc1O (stereo unspecified)
  VCAM-1 up: i | Proteasome disasm: 0.9

5 successive records from above:
> N=c1nc(N2CCCCC2)cc(N)n1O
  VCAM-1 up: i | Proteasome disasm: 0.6
> CCCOc1ccc2nc(NC(=O)OC)[nH]c2c1
  VCAM-1 up: i | Proteasome disasm: 0.9
> CCCC(=O)O[C@]1(C(=O)CCl)[C@@H](C)C[C@H]2[C@@H]3CCC4=CC(=O)C=C[C@]4(C)[C@@]3(F)C(=O)C[C@@]21C
  VCAM-1 up: i | Proteasome disasm: -0.7
> COc1ccc(C(=O)c2ccccc2)c(O)c1
  VCAM-1 up: i | Proteasome disasm: -1.2
> CCCCCCCCCCCCCCCC(O)C(N)CO (stereo unspecified)
  VCAM-1 up: i | Proteasome disasm: 0.8

Some of the compounds tested, so the mix of outcomes need not match the whole.
